VDR inhibitor = inhibitors of human vitamin D receptor. P11473. VDR-SRC2-3 peptide fluorescence polarization, 2 h. Potency, µM, inactives show max response, negative = inhibition, hits mostly inhibitors. hit rate 0.93% among 400,000. AID 504847; active = well fitted inhibition curve with a large enough effect; inconclusive = small, poorly fitted or top-dose-only effect, or another doubt; inactive = no such curve, though single readings can be large or run the other way; note: series mostly up to about 120 µM
Target sequence (P11473 whole entry, looked up): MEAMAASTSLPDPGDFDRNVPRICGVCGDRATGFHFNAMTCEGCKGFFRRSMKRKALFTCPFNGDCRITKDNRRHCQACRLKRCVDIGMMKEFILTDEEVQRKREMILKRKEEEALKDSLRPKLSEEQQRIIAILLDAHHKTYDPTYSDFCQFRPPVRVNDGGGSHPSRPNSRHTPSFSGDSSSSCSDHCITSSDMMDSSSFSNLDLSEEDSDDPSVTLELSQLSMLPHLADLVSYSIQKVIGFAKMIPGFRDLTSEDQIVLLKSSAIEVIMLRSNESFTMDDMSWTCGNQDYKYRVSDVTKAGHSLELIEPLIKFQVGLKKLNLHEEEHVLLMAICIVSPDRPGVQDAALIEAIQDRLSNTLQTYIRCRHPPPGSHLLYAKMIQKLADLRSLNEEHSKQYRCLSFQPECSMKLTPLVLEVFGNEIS
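Measured by FP: displacement of SRC2-3 coactivator peptide from VDR by library compounds, following a two-hour ambient incubation.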
Numbers without * were called inactive; u = inconclusive; [ ] = remark or other dose. % is set by controls: 0 for no effect and ±100 for the full control effect; potency is the fitted concentration of half-maximal effect. A portion of the library. The share of hits here may be higher or lower than overall.

SMILES	VDR inhibitor
COC(=O)[C@@H](Cc1ccccc1)NC(=O)Cn1cc(C)c(=O)[nH]c1=O	-7%
CC1CCC2(OC1)OC1CC3C4CCC5CC(O)CCC5(C)C4=CCC3(C)C1C2C (stereo not drawn)	2%
O=C(O)CCCCCn1c(SCc2cc(=O)n3ccccc3n2)nc2ccsc2c1=O	13%
CCCC(=O)c1cc(F)c(N2CCN(S(=O)(=O)c3ccccc3)CC2)cc1C	7%
CCN(CC)S(=O)(=O)c1ccc(/C=C/C(=O)OCC(=O)NNC(=O)c2ccc(OC)cc2)cc1	17%
O=C(O)C1CCCCC1C(=O)NCCC(c1ccccc1)c1ccccc1 (stereo not drawn)	8%
Cc1ccc(-c2nc3ccccc3s2)cc1S(=O)(=O)N1CCOCC1	-2%
Cc1cc2c(cc1C)CSC(c1c(O)ccc3ccccc13)SC2	-12%
N#CC1=C(N)C(C#N)(C#N)C2(CCC3(CC2)OCCO3)C2CC3(CC=C12)OCCO3 (stereo not drawn)	18%
Cc1ccc(CN2C(=O)CSc3ccc(C(=O)NC4CC4)cc32)cc1	-23%

The last 2 records of the section before open the next one:
SMILES	VDR inhibitor
N#CC1=C(N)C(C#N)(C#N)C2(CCC3(CC2)OCCO3)C2CC3(CC=C12)OCCO3 (stereo not drawn)	18%
Cc1ccc(CN2C(=O)CSc3ccc(C(=O)NC4CC4)cc32)cc1	-23%
N#CCC(=O)N/N=C\c1ccc(OC/C=C/c2ccccc2)cc1	-5%
Cc1cc(-c2ccccc2)[nH]c(=O)c1S(=O)(=O)c1ccc(Cl)cc1	1%
CC1CCCCN1S(=O)(=O)c1ccc(C(=O)Nc2nnc(C3=COCCO3)o2)cc1 (stereo not drawn)	0%
N#Cc1ccc(/C=C2\CCn3c2nc2cc(C(=O)O)ccc2c3=O)cc1	11%
COc1ccc(CNC(=O)c2cnc3n(c2=O)CCS3)cc1	-9%
CC1(C)c2ccccc2N(CC(N)=O)C12C=Cc1ccccc1O2 (stereo not drawn)	u
CCCCNc1cc(=O)n(C)c(=O)n1C	10%
NC1=Nc2cccc3cccc1c23	-14%
COc1ccc(C(=O)/C=C/Nc2cccc(C)n2)cc1OC	-17%
Cc1ccc(C2=NN(C)c3nc4ccccc4n3C2)cc1	-5%
COc1ccc(CC(NC(C)=O)C(=O)NC2CCN(C(=O)Nc3ccc(C#N)cc3)CC2)cc1OC (stereo not drawn)	9%
O=S(=O)(c1ccc(Cl)s1)N1CCCCC1	5%
CC(=O)Nc1ccccc1O	2%
CC(=O)c1cccc(NC(=O)N2CCc3ccccc3C2)c1	6%
Cc1ccccc1NC(=O)c1cc(S(=O)(=O)N2CCOCC2)cs1	-1%
Cc1cc(/C=N/NC(=O)c2ccc(CN3CCOCC3)cc2)c(C)n1-c1ccccc1	-6%
COc1ccc(OC)c(NC(=O)Nc2ccc(Cl)cc2)c1	18%
Cc1ccc(CSc2nnc(CNc3ccc(F)cc3)o2)cc1	2%
O=S(=O)(c1ccc(Cl)cc1)N1CCN(C(=S)Nc2ccc(F)c(Cl)c2)CC1	-19%
Cc1ccc(CN(C(=O)N2CCN(C)CC2)S(=O)(=O)c2ccc(C)cc2)cc1	1%
Cc1ccc(C)c(Cn2c(=O)n(Cc3ccc4c(c3)OCO4)c(=O)c3oc4ccccc4c32)c1	10%
CCCCC(CC)C(=O)Nc1ccccc1C#N (stereo not drawn)	-1%
Cc1cc(NC(=O)/C=C/C(=O)N(CC(=O)NC2CCCC2)c2cccc3ccccc23)no1	-4%
CCOC(=O)CNC(=O)CCNS(=O)(=O)c1ccc2c(c1)c(=O)n(C)c(=O)n2C	0%
Cc1ccc(C(=O)c2ccc(N3CCOCC3)c(F)c2)cc1	2%
O=C(OCC(=O)N1CCCC1)c1cc(Cl)ccc1[N+](=O)[O-]	2%
Cc1ccc(C)c(S(=O)(=O)N2CCN(Cc3cc4c(cc3O)OCO4)CC2)c1	-20%
Cc1ccc(C(c2nnnn2CC2CCCO2)N2CCN(Cc3ccccc3)CC2)cc1 (stereo not drawn)	1%
CC1(C)C(N(O)C(=O)Nc2ccc(Cl)cc2)N(c2ccc(Cl)cc2)C(=O)N1CC(=O)NN (stereo not drawn)	-8%
CCc1cc(CNC(=O)C2CCC(=O)N(Cc3cccc(F)c3)C2)on1 (stereo not drawn)	8%
COc1ccccc1CNC(=O)c1csc(Cc2ccc(Cl)cc2)n1	-14%
Cc1c(C(=O)NCCSCc2c(F)cccc2Cl)cnn1-c1ccc(F)cc1	-24%
COc1cccc(CSc2nc3n(n2)C(CC(C)C)C(C(=O)Nc2ccccc2OC)=C(C)N3)c1 (stereo not drawn)	10%
Cc1cc(Cl)ccc1OCC(=O)N1CCC(c2nc3ccccc3o2)CC1	1%
CCCC(=O)C1=C(O)C(C(=O)OC)C(C)(C)CC1=NC(C)(C)C (stereo not drawn)	9%
CN=C(Nc1ccc(C(=O)OC)s1)c1ccc(Cl)cc1	2%
O=C(/C=C/c1ccco1)Nc1ccccc1C(=O)Nc1cccc(C(=O)O)c1	10%
CCC(C)NC(=O)c1ccc2c(c1)N(Cc1ccccc1)C(=O)c1ccccc1S2 (stereo not drawn)	-12%
C=C(C)COc1ccc(-c2ncncc2-c2ccc(Br)cc2)c(O)c1	-19%
O=C(Nc1cccc(-c2csc(Nc3ccc(Cl)cc3)n2)c1)c1cc([N+](=O)[O-])cc(C(F)(F)F)c1	-23%
Cc1ccc(S(=O)(=O)N(C)CC(=O)O/N=C(\N)c2cccc(Br)c2)cc1	-4%
COc1cccc(OC)c1C(=O)Nc1cccc(-n2cnnn2)c1	-5%
CC(C)C(NC(=O)c1ccccc1F)C(=O)NCc1ccccc1 (stereo not drawn)	u
COc1ccc(/C=N/N2CCN(C)CC2)cc1OC	11%
Cc1ccc(O)c(NC(=O)c2cc(-c3cccs3)on2)c1	-5%
COc1ccc(N2CCN(S(=O)(=O)CCNC(=O)c3ccc(OC(C)C)cc3)CC2)cc1	10%
S=C1N(c2ccccc2)C(c2ccccc2)N2CCCN12 (stereo not drawn)	1%
Cc1csc(NC(=O)CNC(=O)OCc2ccccc2)n1	-7%
O=C(COc1ncnc2sccc12)Nc1ccc2c(c1)OCCO2	-3%
C#CCOCCOCCOCCNc1nc(N2CCN(C(=O)CCCCCCCCCCNC(=O)[C@@H](CCSC)n3cc(CCO)nn3)CC2)nc(N2CCN(C(=O)CCCCCCCCCCNC(=O)[C@H](CCCN=C(N)N)n3cc(C[C@@H](C)CC)nn3)CC2)n1	95%[activator]

New compounds follow:
SMILES	VDR inhibitor
CC(C)OC(=O)c1cc2c(ccn2C)n1CC(=O)N1CCC(Cc2ccccc2)CC1	-8%
CCN(CC)S(=O)(=O)c1cc(C(=O)OCC(=O)Nc2cccc(C)c2C)ccc1F	-1%
CCCCc1nc(C(N)=O)c2[nH]c(=O)n(-c3ccc(OCC)cc3)c2n1	-10%
CN1CCN(CC(=O)Nc2cc(S(=O)(=O)N3CCOCC3)ccc2Cl)CC1	2%
COc1ccccc1C(=O)NCCC(=O)NCC(c1ccccc1OC)N1CCCC1 (stereo not drawn)	5%
CC1CN(c2nc3ccccn3c(=O)c2/C=C(\C#N)S(=O)(=O)c2ccccc2)CC(C)O1 (stereo not drawn)	7%
COc1ccc(C(C(=O)NC2CCCC2)N(CCN2CCOCC2)C(=O)c2ccc(OC)c(OC)c2)cc1 (stereo not drawn)	9%
COc1cc(OC)cc(C(=O)NC2CC(C)(C)NC(C)(C)C2)c1	-14%
COc1ccc(OC)c(NC(=O)c2ccccc2N(Cc2ccccc2)S(C)(=O)=O)c1	-3%
COc1ccc(C(=O)N2c3cc4c(cc3C(C)=CC2(C)C)OCO4)cc1	16%
CCc1ccccc1NC(=O)c1sc(-n2nc(C)c(Cc3ccc4c(c3)OCO4)c2C)nc1C	12%
Cc1nc(-c2ccc(F)cc2)c(CC(=O)N(C)CC(=O)Nc2ccc(Br)cc2C)s1	4%
CCOC(=O)N1CCN(C(=O)CCS(=O)(=O)c2ccc3c(c2)CC(C)N3C(=O)CC)CC1 (stereo not drawn)	13%
COc1ccc(C(CNC(=O)c2ccc(NS(=O)(=O)c3ccccc3)cc2)N2CCOCC2)cc1 (stereo not drawn)	-16%
O=C(Nc1nc2ccccc2n1CCN1CCOCC1)c1ccc(Cl)cc1	1%
O=C(Nc1cccc2nsnc12)c1cc2c(cc1Cl)Sc1nccn1S2(=O)=O	u
C=CCNC(=O)CSc1nnc(-c2ccncc2)n1CCc1ccccc1	20%
C=CCNC(=O)c1ccccc1Cl	12%
O=C(CSc1n[nH]c(-c2ccncc2)n1)NCCc1ccccc1	-2%
CS(=O)(=O)N1CCC(C(=O)NCc2ccc(F)cc2)CC1	-10%

13 structures out of the list, ordered by count of non-hydrogen atoms, descending.
SMILES	VDR inhibitor
COc1ccc(C(C(=O)NC2CCCC2)N(CCN2CCOCC2)C(=O)c2ccc(OC)c(OC)c2)cc1 (stereo not drawn)	9%
COc1ccc(C(CNC(=O)c2ccc(NS(=O)(=O)c3ccccc3)cc2)N2CCOCC2)cc1 (stereo not drawn)	-16%
CCc1ccccc1NC(=O)c1sc(-n2nc(C)c(Cc3ccc4c(c3)OCO4)c2C)nc1C	12%
CCOC(=O)N1CCN(C(=O)CCS(=O)(=O)c2ccc3c(c2)CC(C)N3C(=O)CC)CC1 (stereo not drawn)	13%
COc1ccc(OC)c(NC(=O)c2ccccc2N(Cc2ccccc2)S(C)(=O)=O)c1	-3%
Cc1nc(-c2ccc(F)cc2)c(CC(=O)N(C)CC(=O)Nc2ccc(Br)cc2C)s1	4%
O=C(Nc1cccc2nsnc12)c1cc2c(cc1Cl)Sc1nccn1S2(=O)=O	u
O=C(Nc1nc2ccccc2n1CCN1CCOCC1)c1ccc(Cl)cc1	1%
CCCCc1nc(C(N)=O)c2[nH]c(=O)n(-c3ccc(OCC)cc3)c2n1	-10%
O=C(CSc1n[nH]c(-c2ccncc2)n1)NCCc1ccccc1	-2%
COc1cc(OC)cc(C(=O)NC2CC(C)(C)NC(C)(C)C2)c1	-14%
CS(=O)(=O)N1CCC(C(=O)NCc2ccc(F)cc2)CC1	-10%
C=CCNC(=O)c1ccccc1Cl	12%

Remaining list, next part.
SMILES	VDR inhibitor
O=c1c(-c2c(O)cc(O)c3c(=O)cc(-c4ccc(O)cc4)oc23)c(-c2ccc(O)cc2)oc2cc(O)cc(O)c12	-21%
CCOc1ccc(NC(=O)Cn2cc(C(=O)c3ccccc3)c(=O)c3cc4c(cc32)OCO4)cc1	-9%
CNS(=O)(=O)c1ccc(NC(=O)c2cncc(Br)c2)cc1	13%
CCc1noc(C)c1C(=O)Nc1nc(-c2cc(OC)ccc2OC)cs1	-8%
Cc1ccc(-n2c(C)nn(CCOc3ccccc3)c2=O)cc1	-10%
COc1ccc(-c2nc3cnccn3c2NC2CCCCC2)cc1-c1cccc(Cl)c1	-16%
Cc1cccc(C)c1NC(=O)CSc1nc2c([nH]1)c(=O)n(C)c(=O)n2C	-26%
Cc1ccc(-c2nc(C)sc2CC(=O)OCC(=O)Nc2cccc([N+](=O)[O-])c2)cc1	-1%
Cc1onc(-c2ccccc2Cl)c1C(=O)N(C)CC(=O)Nc1ccc(F)c(F)c1F	-7%
COc1ccc(Cl)cc1NC(=O)CSc1ccc2nnc(CCNS(=O)(=O)c3ccccc3)n2n1	-4%
CCOc1ccc(-n2nc(CO)c(C(=O)NCC(c3ccccc3)c3ccccc3)n2)cc1	5%
CC(C)C(=O)NCCc1nc2ccccc2n1C	10%
COC(=O)c1ccc(NC(=O)CN2CCC(NC(=O)c3ccco3)CC2)cc1	-11%
Cc1ccc(S(=O)(=O)Nc2nc(C)c(C(=O)N/N=C/c3ccccc3)s2)cc1	17%
CC(C)(C)OC(=O)C[C@@H]1C/C=C\C[C@H](CC(=O)N(CCO)Cc2ccccc2)C(=O)N[C@H](C(C)(C)C)COC1=O	12%
CC(C)(C)c1cc2cccnc2n1Cc1cccc(F)c1	-16%
Cc1ccc(CSC2=NC(C)(C)Nc3ccccc32)c(C)c1	0%
COc1ccc(OC)c(S(=O)(=O)N2CCC(C(=O)NC3CCCCCC3)CC2)c1	-9%
Cn1c(-c2ccc(C=O)s2)nc2c3ccccc3c3ccccc3c21	1%
COc1ccc(Cl)cc1C(=O)n1nc(C)cc1C	9%
CC(C)NC(=O)[C@@H]1CSC2c3ccccc3C(=O)N21 (stereo partly drawn)	-15%
O=C(NCCOc1ccc(Cl)cc1)c1ccc2c(c1)OCCO2	4%
COc1ccc(-c2noc(CN(C)S(=O)(=O)c3ccc(C)cc3)n2)cc1	-12%
CC(C)Cc1nnc(NC(=O)CCC(=O)Nc2ccc(F)cc2)s1	-1%
COc1ccccc1OCC(O)Cn1c(=N)n(CCN2CCCCC2)c2ccccc21 (stereo not drawn)	0%
O=C(NC1CCCC(C(F)(F)F)C1)c1ccc([N+](=O)[O-])o1 (stereo not drawn)	-10%
CN(C)C1=NCCN1CCc1ccccc1	3%
O=C(O)CCC(=O)Nc1ccc(N2CCCCC2)c(C(=O)O)c1	-4%
Cc1csc(NC(=O)CN2C(=O)c3ccccc3S2(=O)=O)n1	2%
COC(=O)c1cccc(NC(=O)/C=C/c2ccc([N+](=O)[O-])cc2)c1	13%
O=C(NCCCl)Nc1ccccc1OCCOc1ccccc1NC(=O)NCCCl	-6%
Cc1ccc(S(=O)(=O)NCCn2nc(C)nc2C)cc1	9%
N#Cc1ccc(COC(=O)Cn2nnc(-c3ccccc3)n2)cc1	-13%
O=C(N/N=C\c1cn[nH]c1-c1ccccc1)c1cccs1	2%
COc1ccc(-n2cc(C(=O)Nc3ccccc3C#N)c3ccccc3c2=O)cc1	10%
CN=c1scc(-c2c[nH]c3ccccc23)n1C	-10%
CN1CCN(c2nnc(-c3ccccc3)c(-c3ccccc3)n2)CC1	2%
COc1cccc(C(=O)Nc2ccc3nc(SCC(=O)N4CCOCC4)sc3c2)c1	13%
CC(C)(O)C#Cc1ccc(C(=O)N2CCC(CCC(=O)NC3CC3)CC2)cc1	-2%
CC(C)CCN1CCC(Cc2ccccc2)(NC(=O)c2ccccc2)C1=O (stereo not drawn)	-12%
COc1ccc(S(=O)(=O)N(C)CC(=O)N2CCCC2)cc1	-10%
CCOC(=O)c1ccccc1NC(=O)Cn1c(=O)n(Cc2ccc(C(=O)NCc3ccc4c(c3)OCO4)cc2)c(=O)c2ccccc21	-2%
CC(Nc1c([N+](=O)[O-])c(=O)oc2ccccc12)c1ccccc1 (stereo not drawn)	-6%
